BasE inh: blocks the Acinetobacter baumannii siderophore enzyme BasE | inhibition, % (no concentration beside the values) | 84,000 tested, 0.1% active | AID 485350 | purified BasE, fluorescence polarization binding displacement;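 active = both replicates above 25% with normal brightness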;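 note: 0% = negative plate control signal and 100% = positive plate control signal; stock transfer was 100 nL into about 30 µL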
LANA-nucl inh: inhibitors of KSHV LANA binding to nucleosomes. FITC-LANA1-23 / chicken nucleosome fluorescence polarization; active compounds read low. AID 720717. z-score (test concentration not listed). 51,000 tested, 0.3% active;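 active = both repeat wells score below -2 in polarization z-score versus plate sample wells, excluding overly bright wells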;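 note: 100 nL library stock added to about 30 µL; numbers are from one replicate; some results filed as inactive read as strong as hits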
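Assay system: purified chicken nucleosomes with FITC-labelled LANA N-terminal peptide (1-23) / Probe or stimulus: 50 nM FITC-LANA1-23 probe / Compound dosing: pin-transferred compound, 100 nL / Times: compound with peptide–nucleosome mix 10–45 min at room temperature / Technique: fluorescence polarization, 480 nm excitation, 535 nm parallel and perpendicular emission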
* marks the source's active call; other numbers are inactive results; . = no result given. Only part of the results is shown; count on the stated rates, not on these rows.

mol | BasE inh | LANA-nucl inh
O=C(/C=C/c1cccs1)NC1CC1 | -2.4 | .
O=C1c2ccccc2C2=Nc3ccccc3SC12O (configuration not stated) | 5.5 | 0.21
Cn1c(-c2ccccc2)c(/C=C2/C(=O)Oc3ccccc3C2=O)c2ccccc21 | 8.1 | .
O=C(OCc1nnc(-c2ccccc2)o1)C1c2ccccc2Oc2ccccc21 | 3.6 | 0.16
N#CC(C#N)=C1c2ccccc2-c2c1nc1ccccc1[n+]2[O-] | 2.2 | -0.51
N#Cc1ccc(OC(=O)Cn2c(C(F)(F)F)nc3ccccc32)cc1 | . | -1
O=C1CC(=O)SC(c2ccccc2)=N1 | -3.7 | 0.36
CC(NC(=O)CC12CC3CC(CC(C3)C1)C2)C(=O)O (configuration not stated) | -0.7 | .
CNc1ccc2ccccc2c1 | -3.5 | .
COc1ccc(C)cc1C(=O)CCC(=O)O | 1.6 | -0.92
CCOC(=O)c1cc(NC(=O)N2CCCC2)c(C)nc1C | 2.0 | .
O=C(C1CCN(c2ncnc3sccc23)CC1)N1CCCCCC1 | -1.5 | .
O=C1CCC(C(=O)Nc2ccccc2)N1 (configuration not stated) | -0.5 | 0.41
CCN1C(=O)/C(=C/c2ccco2)NC1=S | -0.3 | .
Cc1cc(C(=O)COC(=O)c2ccc(NC(=O)CC#N)cc2)c(C)n1C1CC1 | -7.4 | .
CCC(C)/C(C)=N/Nc1ccc(Cl)cc1 (configuration not stated) | -2.4 | .
Cc1cc(C)c2c(n1)sc1c(N3CCOCC3)ncnc12 | . | 0.95
N#Cc1c(N)n(Cc2ccc(Cl)cc2)c2nc3ccccc3nc12 | 3.7 | .
COc1ccc(-c2coc3cc(OC)cc(O)c3/c2=N\N)cc1 | 2.4 | .
CCN(C(=O)[C@@H]1CCCN1C(=O)c1cccs1)c1nc2cc(Cl)ccc2s1 | 0.2 | .
O=C(COC(=O)C1=COCCO1)NC1CCCCCCC1 | 1.6 | .
CCSc1nnc(NC(=O)Cc2n[nH]c(=O)c3ccccc23)s1 | 2.1 | .
O=C(Oc1cccc(C(F)(F)F)c1)c1cc2ccc3ccccc3c2s1 | -1.0 | .
CN(C)S(=O)(=O)c1cccc(C(=O)N2CCN(C(=O)C3CCCO3)CC2)c1 (configuration not stated) | 1.6 | .
O=c1c2ccccc2[nH]c(=S)n1CCCN1CCN(c2ccccc2)CC1 | -2.2 | 1.5
Cc1ccc(C(=O)CCC(=O)N2CCN(C/C=C/c3ccccc3)CC2)cc1 | 0.8 | .
Cc1cccc(-c2cc3nc(C)c(C)c(N4CCC5(CC4)OCCO5)n3n2)c1 | -1.0 | 0.3
COc1cccc(N2CCN(CC(=O)c3c(N)n(C)c(=O)n(C)c3=O)CC2)c1 | 0.5 | .
CCc1cccc(NC(=O)C2c3ccccc3Oc3ccccc32)c1 | 1.8 | .
Cn1cnnc1SCc1ccc(C(=O)N/N=C/c2cccs2)cc1 | 1.0 | .
O=C1c2ccccc2NC(c2cccs2)N1CCCN1CCOCC1 (configuration not stated) | 0.6 | -1.5
CC(=O)N1CCN(c2ccc(Oc3nnnn3-c3ccccc3)cc2)CC1 | 1.5 | .
COC(=O)c1cccnc1SC | 2.4 | .
CC(OC(=O)c1ccco1)C(=O)Nc1ccc(C(F)(F)F)cc1 (configuration not stated) | 1.6 | .
COC(=O)c1sccc1S(=O)(=O)N1CCN(c2ncnc3c(C)csc23)CC1 | 3.5 | .
CCCN1C(=O)CSC1=Nc1ccccc1 | 0.6 | -0.88
COc1ccc(NC(=O)C2=C(C)C(=O)OC23CCN(S(C)(=O)=O)CC3)c(OC)c1 | 3.1 | .
CCN1C(=O)CSC1=Nc1cccc(C(=O)O)c1 | 2.0 | .
COc1ccc(NS(=O)(=O)c2cccc(C(=O)N/N=C(\C)c3ccco3)c2)cc1 | 3.2 | .
C=CCn1c(-c2ccc(Cl)cc2)cnc1SC(C)C(N)=O (configuration not stated) | -0.6 | .
FC(F)(F)c1cc(-c2ccccc2)nc2c(-c3ccccc3)cnn12 | 0.5 | .
CCC(O)(c1ccc(OC)cc1)C(CN1CCCC1)c1ccccc1 (configuration not stated) | -2.4 | 0.56
C=CCC1NCCc2c(Br)cccc21 (configuration not stated) | -0.5 | .
CC(COc1ccccc1Cc1ccccc1)N1CCCCC1 (configuration not stated) | . | 0.16
Cc1nnc(SC2CCN(S(=O)(=O)c3ccc(F)cc3)CC2)s1 | 1.7 | -0.41
CSc1cccc(NC(=O)CN2C(=O)CCc3ccccc32)c1 | 2.5 | 0.71
COc1ccccc1N1CCN(C(C)C(=O)Nc2ccccc2-c2ccccc2)CC1 (configuration not stated) | -0.3 | .
N#CCn1c(CSc2nc3cc(Cl)ccc3n2Cc2ccccc2)nc2ccccc2c1=O | 1.3 | .
CCCCCOc1ccc(/C=C/C(=O)N(CCO)CCO)cc1 | 0.9 | .
CCCCCCn1c(=O)[nH]c2nc3cc(N)c(C)cc3nc2c1=O | 12 | .
O=S(=O)(c1ccc2c(c1)OCCO2)N1CCN(C(=S)Nc2cccc(Cl)c2)CC1 | 2.6 | .
CCCN1CCN(C(=O)C2CCS(=O)(=O)C2)CC1 (configuration not stated) | -0.4 | -0.84
CCN(CC)S(=O)(=O)c1ccc(C(=O)Nc2nccs2)cc1 | 0.8 | .
CC1(C)Cc2c(sc3nc(NCCCO)[nH]c(=O)c23)CO1 | 0.5 | 0.001
CCOc1ccc(N(CC(=O)NC2CCCCCC2)S(=O)(=O)c2c(C)[nH]c(=O)[nH]c2=O)cc1 | 1.9 | -0.73
Cc1cccc(CSCC(=O)O)c1 | 2.2 | .
O=C(CN1C(=O)C2CC=CCC2C1=O)Nc1ccc(S(=O)(=O)NC2=NCCCCC2)cc1 (configuration not stated) | -2.0 | .
O=C(c1cnc2sc(N3CCCCC3)nn2c1=O)N1CCCC1 | 1.6 | -0.11
COc1ccc(NC(=O)CN2C(=O)C(C)Oc3ccccc32)cc1 (configuration not stated) | 0.0 | -0.3
CC1CC(C)CN(CC(=O)Nc2ccnn2C(C)C)C1 (configuration not stated) | 4.0 | .

The results go on:
mol | BasE inh | LANA-nucl inh
O=C(CN1CCC(Cc2ccccc2)CC1)Nc1ccc2c(c1)OCO2 | 1.3 | .
CCCCN1CCc2c1nc1ccc(Br)cc1c2N | -3.9 | .
O=C(O)C1=C(CSc2nnnn2CS(=O)(=O)O)CS[C@@H]2C(NC(=O)[C@H](O)c3ccccc3)C(=O)N12 (some centres not stated) | . | 0.4
CCOC(=O)c1oc2ccccc2c1CSc1nnc2n(Cc3ccc(C)cc3)c(=O)c3ccccc3n12 | 0.1 | .
Cn1cc(C(=O)c2ccccc2)cc1-c1nc2ccccc2n1C | -5.1 | -0.42
O=C(O)c1ccccc1NCN1C(=O)c2ccccc2C1=O | -1.1 | 2.1
Cc1c(C(=O)Nc2nc3ccccc3s2)oc2c1C(O)CC(C)(C)C2 (configuration not stated) | 2.9 | -0.073
O=C(O)CC1(CC(=O)N2CCN(C(c3ccccc3)c3ccccc3)CC2)CCCC1 | 1.8 | .
O=C(COC(=O)c1ccc2[nH]c3c(c2c1)CCCC3)NCc1ccco1 | 1.2 | .
COC(=O)c1c(C)oc2ccc(N(C(C)=O)S(=O)(=O)c3ccc4ccccc4c3)cc12 | -1.9 | .
COC(=O)c1cc(S(=O)(=O)NCCCc2ccco2)c[nH]1 | 2.7 | 0.32
N/C(CSc1ccc(Cl)cc1)=N\S(=O)(=O)c1ccc(Cl)cc1 | -0.2 | .
COc1ccccc1/C=C/C=c1\sc2nc(-c3cc(OC)c(OC)c(OC)c3)nn2c1=O | -0.4 | .
C/C(=N\N=C(N)N)c1cccs1 | -0.6 | -0.12
c1ccc(-c2cc3c(N4CCc5ccccc54)ncnc3s2)cc1 | 2.1 | .
CCCCN1Cc2cc(C(=O)c3cc(OC)ccc3O)cnc2NC1=O | 2.7 | .
O=C(O)c1cccc(S(=O)(=O)NOCc2ccccc2)c1 | 4.7 | .
O=C(O)C1CCC(N2C(=O)C3C4C=CC(C4)C3C2=O)CC1 (configuration not stated) | 0.8 | -0.22
CNC(=O)CN(C#N)c1nc(C)cc(C)n1 | -0.5 | 0.056
CCN(CC)C(=O)COc1c(-c2ccco2)oc2ccccc2c1=O | 0.1 | -0.96
COCC(C)N=C1NN=C(c2cc(C)n(-c3cc(C(=O)OC)cc(C(=O)OC)c3)c2C)CS1 (configuration not stated) | 2.2 | .
CCOC(=O)C1=C(Nc2ccc(OC)cc2)OCC1=O | 4.4 | -2.1*
Cc1cc(C(=O)CSc2nnc(C3CC3)n2C2CC2)c(C)s1 | 1.0 | .
CC(C(=O)NC1CCCCC1)N1C(=O)C2C3C=CC(C3)C2C1=O (configuration not stated) | -3.3 | 1
C/C(=C\C(=O)C(F)(F)F)NCc1ccc(S(N)(=O)=O)cc1 | 0.3 | .
O=C(NCCc1ccccc1)c1ccc2cn[nH]c2c1 | 2.4 | 0.18
O=c1nc(N2CCOCC2)nc(Nc2ccc3ccccc3c2)[nH]1 | 1.2 | .
CCC1(C)NC(=O)N(NC(=O)c2ccc(S(=O)(=O)N3CCCC3)cc2)C1=O (configuration not stated) | 1.5 | .
COC(=O)C(NC(=O)NC1CCCCC1)C(C)C (configuration not stated) | -1.2 | -1.2
CCN(CCC#N)c1ccc(CNCCCn2cnc3ccccc32)c(C)c1 | -4.0 | .

4 entries from above, reformatted:
Below each SMILES – BasE inh, LANA-nucl inh
CCN(CC)C(=O)COc1c(-c2ccco2)oc2ccccc2c1=O
→ 0.1, -0.96
COC(=O)c1cc(S(=O)(=O)NCCCc2ccco2)c[nH]1
→ 2.7, 0.32
CC(C(=O)NC1CCCCC1)N1C(=O)C2C3C=CC(C3)C2C1=O (configuration not stated)
→ -3.3, 1
COc1ccccc1/C=C/C=c1\sc2nc(-c3cc(OC)c(OC)c(OC)c3)nn2c1=O
→ -0.4, .

Returning to the listing, starting 3 compounds before the break.
mol | BasE inh | LANA-nucl inh
CCC1(C)NC(=O)N(NC(=O)c2ccc(S(=O)(=O)N3CCCC3)cc2)C1=O (configuration not stated) | 1.5 | .
COC(=O)C(NC(=O)NC1CCCCC1)C(C)C (configuration not stated) | -1.2 | -1.2
CCN(CCC#N)c1ccc(CNCCCn2cnc3ccccc32)c(C)c1 | -4.0 | .
COCc1c(C(=O)NCc2nnc3ccccn23)oc2ccccc12 | 2.0 | .
CC1(NC(=S)NCCO)CCS(=O)(=O)C1 (configuration not stated) | 1.4 | 0.064
Cc1ccc(CCN2CC(C(=O)O)CC2=O)cc1 (configuration not stated) | 2.4 | -1
COc1ccc(S(=O)(=O)N2CCCC(c3nc4ccccc4c(=O)[nH]3)C2)cc1 (configuration not stated) | 2.0 | -2.1
CC1CCN(C(=O)c2cccc(Nc3nc4ccccc4n4nnnc34)c2)CC1 | -4.0 | 2.5
O=C1SCC(c2ccccc2)S1 (configuration not stated) | -0.6 | -0.28
CSC1=N/C(=C/c2cccnc2)C(=O)N1Cc1ccccc1 | 1.1 | -1.2
CC(=O)NC(C)(C)C1CC=C(C)/C(=N\O)C1 (configuration not stated) | -0.3 | -0.2
CCOC(=O)c1c(Nc2ccc(Cl)cc2)cc(C)nc1C | -2.0 | 0.33
CCCCOc1cccc(C(=O)N2CCCCC2C)c1 (configuration not stated) | -0.4 | 0.94
O=C(OCc1cc(=O)oc2cc3c(cc12)CCC3)C1CC(=O)N(Cc2ccco2)C1 (configuration not stated) | 1.6 | .
CSc1sc(C(=O)N/N=C/c2cccs2)c2c1C(O)CCC2 (configuration not stated) | -1.5 | -0.74
CC(N)=NCc1cccc(CN)c1 | -1.3 | -0.48
O=S(=O)(c1ccccc1)N1CCc2ccccc2C1 | -1.2 | 0.17
OCC(O)CNC(=S)NC1CCCCC1 (configuration not stated) | -0.5 | -0.07
O=C(CN1/C(=C(/O)c2ccccc2)C(=O)c2ccccc2S1(=O)=O)c1ccccc1 | -0.1 | .
COc1cc(CC#N)ccc1C | -3.1 | .
CSc1nnc(C2CCN(C(=O)N3CCCC3)CC2)n1C | 2.5 | -0.41
O=c1n(Cc2ccccc2)c2ccccc2n1Cc1ccccc1 | 1.6 | .
CN1C(=O)CS/C1=C\C(=O)c1cccs1 | -1.6 | .
C=CCn1c(=O)/c(=C/c2ccc3c(c2)OCO3)s/c1=C(/C#N)C(=O)C(C)(C)C | 21 | .
CSc1nnc(NC(=O)c2cccc3ccccc23)s1 | 0.8 | -0.6
O=C1CSC(c2ccccc2)N1CCc1ccccc1 (configuration not stated) | 2.2 | .
CCOC(=O)C1CCN(C(=O)Cc2cccc3ccccc23)CC1 | -2.3 | 0.41
CCS(=O)(=O)N1CCc2cc(C(=O)COC(=O)c3cn(C)c4ccccc34)ccc21 | -0.3 | .
NC(=S)Nc1ccc(C(F)(F)F)cc1Cl | 2.6 | .
CN(N=O)C(=O)NC1[C@@H](O)OC(CO)[C@@H](O)[C@H]1O (some centres not stated) | 1.4 | -0.09
CCC(C)OC(=O)CSc1ncnc2sc3c(c12)CCC(C)C3 (configuration not stated) | 1.1 | .
Cc1ccc(NC(=O)C(C)Sc2nnc(C)n2C)cc1 (configuration not stated) | 3.0 | -0.82
Cc1cccc(C)c1NC(=O)c1cnc(NC2CCCCC2)cc1C(F)(F)F | 2.2 | .
Cc1ccc2onc(CNC(=O)NCCN3CCc4ccccc4C3)c2c1 | -1.2 | -0.27

Filtered by structure: the entries above with bromine (2)
mol | BasE inh | LANA-nucl inh
C=CCC1NCCc2c(Br)cccc21 (configuration not stated) | -0.5 | .
CCCCN1CCc2c1nc1ccc(Br)cc1c2N | -3.9 | .

Assay outcomes: PubChem BioAssay, ICCB-Longwood Screening Facility, Harvard Medical School
